Cruzain Triton – cruzain (T. cruzi) inhibition with detergent; P25779; purified cruzain, Z-FR-AMC fluorescence, 0.01% Triton; Potency, µM, for inactives: max response, negative = inhibition, hits mostly inhibitors; 200,000 tested, 0.43% active; AID 1478; active means well fitted curve in the direction sought with a large enough effect; inconclusive means small, poorly fitted or top-dose-only effect, or another doubt; inactive means no such curve, though single readings can be large; an effect the other way counts as inactive or inconclusive;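 further: plate controls were neutral wells for no effect and buffer without enzyme for full effect; nearly all actives have a fitted effect of over 40% in size; top concentration of the series not given in the record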
Target sequence (P25779 123-467 limits assumed): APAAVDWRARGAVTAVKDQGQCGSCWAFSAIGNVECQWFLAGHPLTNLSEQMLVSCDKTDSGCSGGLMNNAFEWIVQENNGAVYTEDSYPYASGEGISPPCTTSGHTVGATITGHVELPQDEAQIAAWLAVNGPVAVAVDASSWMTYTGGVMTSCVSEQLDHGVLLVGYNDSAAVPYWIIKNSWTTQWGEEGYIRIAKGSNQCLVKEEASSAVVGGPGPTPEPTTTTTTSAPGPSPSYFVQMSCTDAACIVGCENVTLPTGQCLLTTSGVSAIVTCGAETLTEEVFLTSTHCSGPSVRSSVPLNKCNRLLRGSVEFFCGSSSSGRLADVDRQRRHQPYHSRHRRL
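Detergent-containing run (0.01% Triton X-100) in acetate buffer pH 5.5 with 5 mM DTT: enzyme at 1.5 nM final, 15 min compound preincubation at room temperature, then 2 uM Z-FR-AMC substrate. Activity taken as 60 s fluorescence increase at 360/450 nm.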
NS1 inh – blocks influenza NS1 protein function. S. cerevisiae slowed by influenza A NS1, growth recovery by OD600. Potency, µM (doses to about 46.1 µM), without a hit: at the highest dose activity, positive = more growth. 270,000 tested, 0.4% active; further: actives are rising curves; nearly all actives have a fitted effect of over 50% in size
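Compounds were scored for reversing the slow growth caused by influenza A NS1 in S. cerevisiae, measured by optical density at 600 nm. Assay medium contained 2% galactose at pH 6.0; NS1-free yeast of the same strain were the positive control.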
SARS PLP yeast – SARS-CoV PLP inhibition in yeast | 330,000 tested, 0.19% active | Potency, µM (top dose mostly 32.9 µM), inactives show at the top dose activity, positive = growth rescue | S. cerevisiae expressing SARS-CoV PLpro, growth rescue; control for the full effect not named in the record | AID 485353; further: 0% is about no effect; nearly all actives have a fitted effect of over 55% in size; growth read by luminescence after 48 h
RE007 growth inh – less growth of the S. pombe RE007 Vpr strain; S. pombe RE007 Vpr strain, BacTiter-Glo ATP luminescence, 24 h; control for the full effect not named in the record; Potency, µM (top dose mostly 92.2 µM), for the others: top-dose activity change, negative = less growth; 360,000 tested, 0.21% active; AID 651644; active = well fitted falling curve with a large enough effect; inconclusive = small, poorly fitted or top-dose-only effect; inactive = no such curve, though single readings can be large or run the other way;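 further: on the % scale 0 is the no-effect control and ±100 the full control effect; nearly all actives have a fitted effect of over 50% in size; the assay follows cell death caused by Vpr and the record does not say whether a fall means rescue or toxicity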
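Fission yeast strain RE007, carrying one chromosomally integrated HIV-1 vpr copy, was seeded at OD 0.01 in PMG+AL medium with 23 nL pinned compound. After 24 h at 30 °C and 99% humidity, viability was read by BacTiter-Glo luminescence.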
Marburg entry inh – blocks Marburg virus binding to or entry into cells; 300,000 tested, 1.8% active; Potency, µM (top dose mostly 37.8 µM), without a hit: at the highest dose activity change, negative = inhibition, usual class: inhibitors; Marburg virus pseudotyped entry inhibition, cell reporter; control for the full effect not named in the record; about a third of the inactives were read at about 46 µM; AID 540276; active = well fitted inhibition curve with a large enough effect; inconclusive = small, poorly fitted or top-dose-only effect, or effect the other way; inactive = flat fitted curve, though single readings scatter; tested in HEK293 cells; about a fifth of its hits are not listed in these tables; further: on the % scale 0 is the no-effect control and ±100 the full control effect; luciferase read-out
2A StopGo – lowers the luciferase signal of an FMDV 2A StopGo reporter. human cells with a luciferase reporter of 2A StopGo recoding; control for the full effect not named in the record. Potency, µM (titrated, usually from 57.9 µM), for inactives: at the top dose signal change, negative = less light. 410,000 tested, 1.2% active. AID 1159524; active = well fitted falling curve with a large enough effect; inconclusive = small, poorly fitted or top-dose-only effect; inactive = no such curve, though single readings can be large or run the other way; tested in HEK293T cells; further: on the % scale 0 is the no-effect control and ±100 the full control effect; nearly all actives have a fitted effect of over 45% in size; luciferase light after 4 h
Cruzain inh noDet – blocks cruzain activity in detergent-free assay. purified cruzain, Z-FR-AMC fluorescence, no detergent. 200,000 tested, 2.3% active. Potency, µM, for the others: max response, negative = inhibition, most hits filed as inhibitors; active means well fitted curve in the direction sought with a large enough effect; inconclusive means small, poorly fitted or top-dose-only effect, or another doubt; inactive means no such curve, though single readings can be large; an effect the other way counts as inactive or inconclusive;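 further: plate controls were enzyme without inhibitor for no effect and buffer without enzyme for full effect; nearly all actives have a fitted effect of over 40% in size; top concentration of the series not given in the record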
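Purified cruzain at 1.5 nM, pre-incubated 15 min with compound at room temperature in 100 mM sodium acetate pH 5.5, 5 mM DTT, 0.00005% Triton X-100. Reaction started with 2 uM Z-FR-AMC; AMC fluorescence increase over 60 s gives rate.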
Lassa entry inh – Lassa virus entry inhibition; Lassa virus pseudotype entry inhibition, cell reporter; control for the full effect not named in the record; Potency, µM (highest dose often 37.9 µM), for the others: at the top dose activity change, negative = inhibition, hits mostly inhibitors; 300,000 tested, 1.2% active; AID 540256; active means well fitted inhibition curve with a large enough effect; inconclusive means small, poorly fitted or top-dose-only effect, or effect the other way; inactive means flat fitted curve, though single readings scatter; tested in HEK293 cells; further: on the % scale 0 is the no-effect control and ±100 the full control effect; nearly all actives have a fitted effect of over 50% in size; luciferase read-out
An asterisk follows results filed as active; ? = inconclusive; nt = not tested or not shown; & = joins results of further samples; [ ] = dose if it differs, or a comment. Unless noted, the call rests on the fitted dose curve; in most records, active means well fitted rising curve with a large enough effect; inconclusive means small, poorly fitted or top-dose-only effect; inactive means no such curve, though single readings can be large or run the other way. Potency means the concentration at half of the fitted maximal effect.

SMILES	Cruzain Triton	NS1 inh	SARS PLP yeast	RE007 growth inh	Marburg entry inh	2A StopGo	Cruzain inh noDet	Lassa entry inh
Fc1ccc(F)c(NC2=NCCCCC2)c1	nt	-1%	-2%	3%	-14%[46.1 µM]	-4%	nt	4%
CN(C)C(CNC(=O)c1cccc(C#N)c1)c1ccco1 (stereo not given)	nt	nt	1%	-17%	-4%[46.1 µM]	0%	nt	16%[46.1 µM]
COc1ccc(NC(=O)C2C3CCC(C3)C2C(=O)O)cc1OC (stereo not given)	12%	-6%	-3%	-18%	25%	-3%	1%	8%
CCCS(=O)(=O)Nc1cccc(-c2cn3ccc(C)cc3n2)c1	-4.0%	nt	nt	nt	20%[46.1 µM]	36%[activator]	11%	?
OCC(O)CN1CCCC1 (stereo not given)	nt	3%	0%	1%	-1%[46.1 µM]	-13%	nt	24%
Cc1ccc(-c2cc(C(=O)N/N=C/c3ccc(F)cc3)n[nH]2)o1	nt	2%	-8%	-7%	-1%[46.1 µM]	-5%	nt	-10%
COc1ccc(NC(=O)c2ccccc2NC(=O)C2CCCO2)cc1 (stereo not given)	5.5%	-2%	0%	10%	17%	nt	-5%	1%
Cc1cccc(OCC(=O)NCCNC(=O)c2cccnc2)c1	nt	5%	-1%	-4%	16%[46.1 µM]	17%	nt	-2%[46.1 µM]
COc1ccc(-c2c(C#N)c(SCC(=O)Nc3ccc(C)cc3)nc(C)c2C(=O)Nc2ccccc2)cc1	-2.3%	nt	nt	nt	nt	-18%	-17%	28%[46.1 µM]
COCc1[nH]nc2c1C(c1cc(OC)c(O)c(OC)c1)C(C#N)=C(N)O2 (stereo not given)	-1.9%	-4%	9%	17%	4%	-2%	3%	?
CC1CCCC(NS(=O)(=O)c2ccc3c(c2)OCCO3)C1C (stereo not given)	-5.7%	-58%	-17%	-3%	-3%	48%[activator]	-2%	6%
COc1ccc(NC(=O)CCNC(=O)Cn2ccc3ccccc3c2=O)cc1Cl	nt	9%	-1%	-14%	-4%[46.1 µM]	-4%	nt	nt
C=CCC(=O)N1CCC(n2nccc2NC(=O)CCOc2ccccc2)CC1	nt	-7%	-1%	-12%	nt	11%	nt	nt
O=C(Cc1ccsc1)NNC(=O)c1ccccc1Cl	nt	nt	3%	-21%	0%[46.1 µM]	1%	nt	24%
COc1cc(CC(=O)Nc2cc(S(C)(=O)=O)ccc2Cl)cc(OC)c1OC	nt	nt	2%	0%	?	-24%	nt	-6%[46.1 µM]
Cc1cc(-c2ccccc2)n(-c2ccc(C(=O)N3CCN(c4ncccn4)CC3)cc2)n1	0.4%	-67%	-20%	6%	-7%	?	?	2%
COc1ccc(CCN(C)C(=O)CSc2nc3ncc(Cl)cc3[nH]2)cc1OC	nt	1%	1%	-7%	nt	-9%	nt	nt
CN(Cc1ccccc1)CC(O)COc1ccc(CNCCCOc2cccnc2)cc1 (stereo not given)	nt	8%	0%	-7%	nt	-5%	nt	nt
COC(=O)c1c(NC(=O)CN2C(=O)C(=O)N(CC(C)C)C2=O)sc2c1CCCCC2	-11%	-9%	-10%	0%	16%	-13%	-3%	17%
Fc1ccc(-c2nc3c(-c4ccc(F)cc4)cnn3cc2CCN2CCOCC2)cc1	nt	0%	0%	-11%	-22%[46.1 µM]	?	nt	10%
NC(=O)C1(N2CCCCC2)CCN(C(=O)CSc2nc(C(F)(F)F)cc(=O)[nH]2)CC1	3.0%	-1%	3%	3%	29%	-17%	-1%	-2%
CN1C(=O)Cn2c1nc1ccccc12	3.0%	1%	-2%	-9%	0%	-13%	-13%	12%
NC(=O)C1CCN(C(=O)c2cccc(S(=O)(=O)N3CCc4ccccc4C3)c2)CC1	nt	nt	-2%	-12%	?	6%	nt	10%
CCC(=O)N1CCc2cc(S(=O)(=O)NCCC(=O)NC(C)c3ccccc3)ccc21 (stereo not given)	-2.1%	nt	nt	nt	-5%[46.1 µM]	-5%	1%	22%[46.1 µM]
COc1ccc(C2C(C#N)=C(N)Oc3cc(C)n(CCN4CCOCC4)c(=O)c32)cc1OC (stereo not given)	1.3%	11%	4%	12%	-10%	16%	0%	5%
COc1ccc(CNC(=O)CCCn2c(=O)c3cccn3c3ccc(F)cc32)cc1OC	-6.5%	nt	nt	nt	nt	?	-4%	-25%[46.1 µM]
Cc1ccc(C(=O)Nc2ccccc2Oc2ccccc2)cc1[N+](=O)[O-]	-6.3%	-4%	-19%	4%	?	-18%	-6%	?
Cc1cc(/C=C2\SC(=S)NC2=O)c(C)n1C	-0.3%	-106%	-6%	-16%	0%	nt	-5%	5%
COc1ccc(C(=O)N2CCC(C(=O)Nc3ccc4c(c3)OCO4)CC2)cc1	6.0%	-4%	?	14%	-2%	3%	-5%	-6%
Cc1ccc2c(cnn2C(=O)CCC(=O)NC2CCCC2)c1	nt	-17%	-12%	-1%	nt	-11%	nt	nt
CCCCOC(=O)Nc1cccc(C(C)=O)c1	1.9%	-17%	-11%	-4%	15%	60%[activator]	-1%	?
COc1nc(N)nc2c1ncn2C1OC(CO)CC1O (stereo not given)	nt	nt	nt	1%	?	6%	nt	-2%
N#C/C(=C/C1=C(N2CCOCC2)C(=C/c2ccc(Cl)cc2Cl)/CC1)C(=O)Nc1ccccc1F	nt	nt	nt	-8%	1%[46.1 µM]	-23%	nt	-6%[46.1 µM]
O=C(Cc1ccccc1)NNC(=S)Nc1ccc(Cl)cc1	-3.2%	-4%	?	1%	19%	34%[activator]	6%	-26%
CSCC[C@H](NC(=O)[C@@H]1Cc2ccccc2CN1)C(=O)Nc1ccc2c(c1)OCCO2	nt	10%	2%	-1%	nt	15%	nt	nt
Cc1ccc2oc(=O)c3cc(C(=O)NCCCOC(C)C)sc3c2c1	0.7%	nt	nt	nt	-20%[46.1 µM]	7%	-1%	3%[46.1 µM]
Nc1c(C(=O)Nc2ccc(F)cc2)sc2nc(-c3ccco3)ccc12	-20%	-48%	-3%	?	?	0%	-11%	?
COCCCNC(=S)NNC(=O)c1ccc2c(c1)OCO2	2.3%	?	-12%	-10%	-1%	2%	3%	12%
COc1ccc(OC)c(-n2c(SCC(=O)Nc3cc(C)on3)nnc2-c2c[nH]c3ccccc23)c1	2.8%	4%	7%	6%	nt	-12%	15%	nt
CCCN(C(=O)CCn1cnc2onc(-c3ccc(F)cc3)c2c1=O)c1ccccc1C	-5.8%	nt	nt	nt	nt	-22%	?	2%[46.1 µM]
C=CCN(CC=C)C(=S)NC(=O)c1ccc(C)c(Br)c1	-7.4%	-18%	-48%	-29%	?	10%	-5%	?
O=c1c2cc3c(cc2nc2sc(Nc4ccc(F)c(Cl)c4)nn12)OCO3	1.8%	nt	nt	nt	22%[46.1 µM]	-7%	1%	?
O=C(Nc1ccc(Cl)cc1)C1CCCN(c2cnccn2)C1 (stereo not given)	nt	-77%	-12%	-11%	nt	-6%	nt	nt
COc1ccc(-n2c(/C=C/c3ccc4c(c3)OCO4)nc3ccccc3c2=O)cc1	-7.4%	6%	-1%	12%	?	?	-7%	-17%
Cc1nnsc1SC(C)C(=O)O (stereo not given)	2.6%	-1%	6%	16%	-21%	-4%	-4%	18%
Cc1ccc(S(=O)(=O)N(CC(O)CN(C)C)c2ccccc2)cc1 (stereo not given)	2.3%	9%	2%	-2%	?	-16%	-5%	-2%
Cc1ccc(NC(=O)CCCN2C(=O)NC(C)(C)C2=O)cc1	nt	nt	-3%	0%	9%	-8%	nt	-2%
Cc1ccc(NC(=O)CCc2c(C)nn(-c3ccc(N4CCOCC4)nn3)c2C)c(C)c1	-1.1%	-5%	-14%	14%	?	25%&3%	5%	5%&2%[46.1 µM]
Cn1c(SCC(=O)c2ccc3c(c2)Cc2ccccc2-3)nnc1-c1cccc(N)c1	-12%	?	-28%	-19%	12%	-20%	?	1%
Cc1csc(NC(=O)CCc2ccc(S(=O)(=O)N3CCOCC3)cc2)n1	2.7%	2%	3%	15%	6%	?	-15%	-18%
c1ccc2oc(-c3[nH]ncc3CN3CCC(N4CCSCC4)CC3)cc2c1	nt	12%	-1%	-12%	?	?	nt	0%
CCOC(=O)c1ccc(NC(=S)N2CCN(c3ccccn3)CC2)cc1	nt	4%	2%	-7%	?	7%	nt	2%
CSc1nnc2n(C)c3c(c(=O)n12)C1(CCCC1)Cc1ccccc1-3	0.9%	?	?	2%	?	-3%	3%	-21%
COc1cc2cc(C(c3nnnn3C3CCCCC3)N(C)C3CCCCC3)c(=O)[nH]c2cc1OC (stereo not given)	-13%	-39%	7%	5%	-21%	-18%	?	?
N=C1/C(=C\c2ccc(Br)o2)C(=O)N=C2SC(CC(=O)N3CCOCC3)=NN12	nt	7%	-4%	-9%	4%[46.1 µM]	3%	nt	26%[46.1 µM]
CCOc1ccc(Cc2c(Cl)nc(SC)nc2OC)cc1	0.9%	5%	-19%	-15%	-3%	-3%	-4%	-4%
CN(C(=O)C1CCOC1)c1nnc(-c2cnccn2)s1 (stereo not given)	-2.8%	-10%	-2%	-10%	0%[46.1 µM]	16%	-10%	21%
NCCCNC(=O)c1ccc(/C=N/O)nc1	nt	-1%	1%	-14%	26%[46.1 µM]	-5%	nt	0%
Cc1cc(C)n(-c2ccc(Cl)c(C(=O)OCC(N)=O)n2)n1	3.3%	4%	?	-3%	16%	-6%	-2%	3%
CC1(C)CC(=O)CC(C2(O)C(=O)N(Cc3ccccc3)c3ccccc32)O1 (stereo not given)	1.2%	-6%	-2%	-5%	-5%	-9%	9%	-17%
COc1ccc(-n2c(/C=C\c3ccccc3F)nc3ccccc3c2=O)cc1OC	0.8%	nt	nt	nt	nt	?	4%	27%[46.1 µM]
CCCCOc1ccc(C(=O)NCC(=O)N(C)CC(=O)Nc2ccc(N3CCOCC3)cc2)cc1	nt	nt	-5%	0%	?	-20%	nt	13%
